# StopGo FLuc = Primary qHTS Assay for Foot and Mouth Disease Virus Antivirals against NCGC Sytravon and CBC Compound Libraries: Firefly Luciferase Signal; HEK cells with a luciferase reporter of 2A StopGo recoding; Potency, µM (titrated, usually from 57.5 µM), for inactives: top-dose signal change, negative = less light; 120,000 tested, 0.23% active; active = well fitted falling curve with a large enough effect; inconclusive = small, poorly fitted or top-dose-only effect; inactive = no such curve, though single readings can be large or run the other way; also: nearly all actives have a fitted effect of over 60% in size; overnight with compound
# StopGo RLuc = Primary qHTS Assay for Foot and Mouth Disease Virus Antivirals against NCGC Sytravon and CBC Compound Libraries: Renilla Luciferase Signal. HEK cells with a luciferase reporter of 2A StopGo recoding. 120,000 tested, 0.32% active. Potency, µM (titrated, usually from 57.5 µM), for inactives: top-dose signal change, negative = less light; active means well fitted falling curve with a large enough effect; inconclusive means small, poorly fitted or top-dose-only effect; inactive means no such curve, though single readings can be large or run the other way; also: nearly all actives have a fitted effect of over 55% in size; overnight with compound
# An asterisk follows results filed as active; ? = inconclusive; & = joins results of further samples; [ ] = dose if it differs, or a comment. % is scaled to controls: 0 for no effect and ±100 for the full control effect; potency is read from the fitted curve at half-maximal effect.
# The first 3 compounds (preview)
# Order of results – StopGo FLuc	StopGo RLuc
Cc1cccc(N2C(=O)CSC23C(=O)N(CC(=O)NCc2ccccc2Cl)c2ccccc23)c1 (stereo not given)
  -14.4%	0.0%
CC(=O)Nc1cc(C(=O)NCc2ccc(F)cc2Cl)ccc1Sc1ccc(Cl)cc1
  6.2%	11.1%
COc1ccc(N2CCN(C(c3ccccc3)c3sc4nc(-c5ccco5)nn4c3O)CC2)cc1 (stereo not given)
  -13.0%	0.0%

# Results (from the top)
# Order of results – StopGo FLuc	StopGo RLuc
Cc1cccc(N2C(=O)CSC23C(=O)N(CC(=O)NCc2ccccc2Cl)c2ccccc23)c1 (stereo not given)
  -14.4%	0.0%
CC(=O)Nc1cc(C(=O)NCc2ccc(F)cc2Cl)ccc1Sc1ccc(Cl)cc1
  6.2%	11.1%
COc1ccc(N2CCN(C(c3ccccc3)c3sc4nc(-c5ccco5)nn4c3O)CC2)cc1 (stereo not given)
  -13.0%	0.0%
Cc1ccc(N(C(=O)c2ccc(C(C)(C)C)cc2)C2C=CS(=O)(=O)C2)cc1 (stereo not given)
  -12.1%	-9.5%
COc1ccc(Oc2c(C)oc3cc(OCC(=O)N(C)Cc4ccccc4)ccc3c2=O)cc1
  ?	-25.3%
Cn1c(=O)cc(OCC(=O)N2CCN(c3ccccc3)CC2)c2ccccc21
  3.7%	5.8%
Oc1ccccc1-c1nc2ccccc2s1
  59.1%[activator]	5.6%
COc1ccc(CC2C(=O)Nc3ccc(Br)cc32)cc1OC (stereo not given)
  -14.7%	-2.3%
O=C(Nc1ccc(Br)cc1F)N1CCC2(CC1)Oc1ccccc1C(=O)N2Cc1ccccc1F
  16.3%	5.1%
O=C1CCC(C(=O)OCc2cc(=O)oc3cc(O)ccc23)=NN1
  11.6%	-2.1%
Cc1ccc(CN2CCCn3nc(C(=O)NCc4ccc(N(C)C)cc4)cc3C2=O)cc1
  -4.3%	70.3%[activator]
CN(C(=O)c1cc2nc(-c3ccc4c(c3)OCO4)cc(C(F)(F)F)n2n1)c1ccc(OC(F)(F)F)cc1
  -3.8%	-3.0%
Cc1ccc(NC(=O)Nc2c[nH]c(=O)[nH]c2=O)cc1C
  52.9%[activator]	-0.1%
Cc1cc(C)c2nc(-c3ccc(N)cc3)cc(C(=O)O)c2c1
  0.0%	13.4%
CC(C)(CNC(=O)C1CCN(c2nc3ccccc3o2)CC1)N1CCCCC1
  -15.8%	-16.1%
Cc1ccc(NCCC(=O)c2cc3ccccc3o2)cc1Br
  59.1%[activator]	-14.6%
COc1cc(NC(=O)CN2C(=O)COc3cc(C(C)(C)C)ccc32)cc(OC)c1
  -4.5%	-11.4%
Cn1c(=O)c2c(nc(SCc3ccc(F)cc3)n2Cc2ccccc2)n(C)c1=O
  0.1%	2.2%
Cc1ccc(C)c(NS(=O)(=O)c2ccc(-c3coc(C)n3)cc2)c1
  -13.6%	102.9%[activator]
Cc1ccc(CNc2ccc3cc(S(=O)(=O)N4CCCCC4)ccc3n2)cc1
  -26.5%	-12.1%
CC1CCCCN1Cc1c(O)ccc2c(=O)c(-c3ccc(Cl)cc3)coc12 (stereo not given)
  69.9%[activator]	-13.6%
Cc1c2cnn(CC(=O)NC(C)C)c(=O)c2c(C)n1Cc1ccccc1Cl
  9.8%	-10.0%
CC(C)(C)c1ccc(C(=O)NC2(C(F)(F)F)C(=O)Nc3c2c(=O)[nH]c(=O)n3-c2ccccc2)cc1 (stereo not given)
  -13.2%	-12.1%
Cc1ccc(CNC(=O)Cn2c(-c3cccs3)cc3cc(Cl)ccc32)cc1
  -4.6%	-3.9%
Cc1oc(-c2ccccc2)nc1C(=O)Nc1ccccc1Cc1ccccc1
  -7.4%	-9.6%
Cc1ccc(C(CNC(=O)c2cc(=O)c3cc(Br)ccc3o2)N2CCCCC2)o1 (stereo not given)
  -11.4%	-7.3%
CC1(NC(=O)CSc2nc(CN3CCOCC3)nc3ccccc23)CCS(=O)(=O)C1 (stereo not given)
  -0.4%	-13.8%
Cc1ccc2[nH]cc(CCNC(=O)c3c(F)cccc3F)c2c1
  6.3%	10.4%
CCOC(=O)c1ccc(NC(=O)CN2C(=O)c3cccnc3Sc3ccccc32)cc1
  0.0%	41.1%[activator]
CN(C(=O)C1CCCCC1)C1(c2ccccc2Cl)CCCCC1=O (stereo not given)
  7.1%	112.9%[activator]
O=C(O)/C=C/c1ccccc1F
  23.5%	22.8%
O=C(Cc1csc(-c2cccs2)n1)Oc1ccc(Cl)c2ccccc12
  7.7%	5.0%[1.06 µM]
COc1ccc(OC)c(C2CC(=O)Nc3c2c(C)nn3-c2ccc3nnc(C)n3n2)c1 (stereo not given)
  -3.4%	-6.0%
CCOc1ccc(CCNC(=O)c2cnc3c(-c4ccc(F)cc4)c(C)nn3c2C)cc1OCC
  -17.1%	-5.0%
Cc1ccc(NC(=O)Nc2nnc(C3CCCC3)s2)cc1
  211.3%[activator]	-2.4%
O=C(CSc1nc2c(oc3ccccc32)c(=O)n1Cc1ccco1)Nc1ccccc1
  -2.8%	7.9%
C=CCc1c(C)nc(Nc2nc(C)c3cccc(C)c3n2)[nH]c1=O
  5.3%	-1.2%
Cc1ccc(Cn2cccc(C(=O)Nc3ccc4c(c3)OCO4)c2=O)cc1
  5.1%	1.8%
CN1C(=O)C(O)(CC(=O)c2ccc3c(c2)OCO3)c2ccccc21 (stereo not given)
  4.2%	37.2%[activator]
CCn1c(C)cc(/C=C(\C#N)c2ccc(Br)cc2)c1C
  53.7%[activator]	42.0%[activator]
CCOC(=O)c1ccc(NC(=O)CC2NCCNC2=O)cc1 (stereo not given)
  0.0%	0.0%
Cc1ccc(C(=O)COC(=O)c2ccccc2O)s1
  0.0%	23.5%
COC(=O)c1ccc2nc(C)cc(Nc3cccc(Cl)c3C)c2c1
  4.6%	-4.6%
Cc1ccc(CNC(=O)c2cc3c(s2)-c2cc(C)sc2CC3)cc1
  18.3%	26.3%
CC(C)c1nc(N2CCOCC2)c(C#N)c2c1CCCC2
  20.3%	10.1%
O=C(c1ccc2[nH]ccc2c1)N1CCN(C(=O)c2cc3ccccc3[nH]2)CC1
  1.3%	19.0%
O=C(CCc1ncc(-c2ccc(Cl)cc2Cl)o1)NCc1ccccc1
  4.1%	-7.7%
CCCCn1cc(S(=O)(=O)c2ccc(F)cc2)c(=O)c2ccccc21
  2.3%	117.2%[activator]
CCOc1ccccc1NC(=O)N(C)Cc1nc(-c2ccccc2C)oc1C
  21.9%	17.7%
CN(CCC#N)S(=O)(=O)c1cc(Br)ccc1Br
  1.1%	33.9%[activator]
O=C(COc1ccccc1Cl)Nc1ccc2oc(=O)ccc2c1
  47.6%[activator]	-2.7%
COc1ccc(CCNC(=O)CCc2c(C)c3cc4c(C)c(C)oc4cc3oc2=O)cc1OC
  -14.5%	-18.7%
Cc1ccc(-c2ccc(CCC(=O)Nc3nnc(C)s3)o2)cc1
  9.4%	12.0%
CCCc1cc(=O)[nH]c(SCc2nc(-c3ccc(OC)cc3)no2)n1
  -4.3%	-6.6%
CCOCCCNC(=O)C(NC(=O)c1cccc(C)c1)C(C)C (stereo not given)
  -1.5%	-0.6%[1.06 µM]
CC(C)NC(=O)NC(=O)CSc1nnc(-c2ccccc2)c(-c2ccccc2)n1
  48.2%[activator]	29.1%
CC(C)c1ccc(NC(=O)C2CCCN(S(=O)(=O)c3ccc4[nH]c(=O)oc4c3)C2)cc1 (stereo not given)
  5.8%	2.6%
CCCc1ccc(-c2cc(C(=O)NCCCn3ccnc3)c3ccccc3n2)cc1
  135.2%[activator]	7.9%
COP(=O)(OC)c1nc(-c2cccs2)oc1NCc1ccccc1
  6.2%	220.6%[activator]
Cc1cccc(-c2nc3c4ccccc4nc(NCCc4ccccc4)n3n2)c1
  81.6%[activator]	-7.7%

# New compounds follow
# Order of results – StopGo FLuc	StopGo RLuc
O=C1NC2(C(=O)Nc3ccc(Cl)cc3)CCC(=O)N2c2ccccc21 (stereo not given)
  4.3%	29.3%
C[C@H]1COc2cccc(N3CCSCC3)c2S(=O)(=O)N1C
  1.7%	1.3%
O=C(NCC(c1ccco1)N1CCCCC1)c1cc2ccccc2oc1=O (stereo not given)
  43.8%[activator]	-3.7%
COc1ccc(-c2c(C)nn3c(C(F)(F)F)cc(-c4ccccc4)nc23)cc1
  -9.1%	-7.5%
CN(Cc1ccsc1)C(=O)c1ccsc1
  11.9%	21.5%
CCCCCCCn1c(SCC(=O)c2ccccc2)nc2c1c(=O)[nH]c(=O)n2C
  27.4%	16.3%
CCC(=O)Nc1cc(C)c(O)c(-c2nc3ccccc3o2)c1
  10.3%	-1.5%
CS(=O)(=O)N1CCN(Cc2nc3ccsc3c(=O)[nH]2)CC1
  6.0%	3.8%
COc1cc(CNCCSc2nnnn2C)ccc1OCc1ccccc1
  102.9%[activator]	3.6%
COC(=O)c1sccc1S(=O)(=O)N(CC(=O)Nc1ccccc1)c1ccccc1
  21.4%	13.9%
CC(C)[N+](C)(CCC(C(N)=O)(c1ccccc1)c1ccccc1)C(C)C
  28.4%[11.5 µM]	13.2%
Cc1nc2ccn(Cc3ccco3)c(=O)c2cc1C(=O)NCc1ccc(F)cc1
  -6.9%	1.0%
CCCn1c2ccc(F)cc2c2nnc(SCCN(CC)CC)nc21
  -10.9%	-9.0%
CCOC(=O)c1ccc(N2C(=O)c3n[nH]c(-c4ccco4)c3C2c2ccc(OCC)cc2)cc1 (stereo not given)
  -41.1%&-38.1%	10.1%&44.9%
Cc1cc(Cl)c2c([N+](=O)[O-])c(O)ccc2n1
  -1.0%	-7.3%
CCc1ccc(NC(=O)C(C)N2CCN(c3cccc(C(F)(F)F)c3)CC2)cc1 (stereo not given)
  0.0%	3.7%[1.06 µM]
COc1ccc(CNS(=O)(=O)c2cc(Br)cc3c2N(C(C)=O)C(C)C3)cc1 (stereo not given)
  -11.6%	223.8%[activator]
CCOC(=O)C1(C)C=C(Nc2ccc(C(=O)O)cc2)C(=O)N1c1ccc(C(=O)O)cc1 (stereo not given)
  -4.2%	-12.2%
CC(=O)OCc1cnc(C)c2oc(=O)c(C(=O)Nc3ccc(C)cc3Cl)cc12
  -18.4%	-17.0%
COc1ccccc1-c1noc(-c2ccc(NC3CCCCC3)c([N+](=O)[O-])c2)n1
  10.4%	-13.2%
O=C(NCCN1CCOCC1)c1nn2c(C(F)(F)F)cc(-c3ccco3)nc2c1Br
  14.4%	9.0%
O=C1N(Cc2ccccc2)c2ccccc2C1(O)c1c[nH]c2ccccc12 (stereo not given)
  -11.2%	7.6%
CC[N+](C)(C)c1cccc(O)c1
  -12.7%[11.5 µM]	-4.5%
O=C(NCc1cccc(Cl)c1)C(=O)Nc1ccc2cc[nH]c2c1
  41.3%[activator]	20.2%
C=CCn1c(NCCN(C)C)nc2c1c(=O)[nH]c(=O)n2C
  -0.4%	0.4%
O=C(c1ccccc1)N(Cc1ccco1)Cc1cccs1
  -11.6%	25.4%
CCOC(=O)c1ccc(Nc2c(-c3cccc(O)c3)nc3nc[nH]n23)cc1
  ?	-10.5%
Cc1ccc(-c2cnc(-c3c(N)sc4c3CCCC4)s2)cc1
  114.8%[activator]	-2.0%
C=CCC(CC=C)(CNC(=O)C(=O)Nc1cc(C)ccc1OC)c1ccc(OC)c(OC)c1
  -11.0%	-9.8%
N/C(CN1CCCC1)=N\O
  10.9%	16.6%
S=c1ccc2ccccc2[nH]1
  19.4%	4.2%
O=C(c1ccc(F)cc1)n1nc(-c2ccc(Cl)cc2)nc1NCc1ccco1
  40.3%[activator]	29.1%
CCN(CC)c1nc2ccccc2nc1C(=O)Nc1cccc(C(C)=O)c1
  9.4%	46.1%[activator]
CCn1nc(C(=O)OC(C)C(=O)Nc2ccc(N3CCOCC3)cc2)c2ccccc2c1=O (stereo not given)
  24.4%	-6.4%
Cc1ccccc1CC(=O)Nc1cc(S(=O)(=O)N2CCOCC2)ccc1N1CCOCC1
  -2.4%	-1.3%
COc1ccc(Nc2nc(-c3cccc(Cl)c3)c3c(n2)-c2ccccc2OC3)cc1
  -5.6%	16.1%
COc1ccc(CCNC(=O)c2cc3ccccc3oc2=O)cc1OC
  ?	-9.8%
Cc1ccc(C(O)CNC(=O)Nc2c(C)cc(C)cc2C)cc1 (stereo not given)
  -3.1%	2.4%
Cc1nnc(N2CCCC(C(=O)NCCN(C)C)C2)c2nn(-c3ccccc3)c(C)c12 (stereo not given)
  -18.2%	5.7%
COc1ccc(OC)c(C2CCCN2Cc2nc(-c3ccccc3Cl)no2)c1 (stereo not given)
  9.5%	10.0%
O=C(c1ccc2c(c1)N(Cc1ccc(F)cc1Cl)C(=O)c1ccccc1S2)N1CCC2(CC1)OCCO2
  0.0%	170.1%[activator]
CCN(CC)C(=O)c1ccc(NC(=O)c2ccc(-c3nn(C)c(=O)c4ccccc34)cc2)cc1
  -4.2%&-10.2%	-2.7%&-2.7%
CCOc1ccc(CC(=O)NCCS(=O)(=O)N2CCN(c3ccccc3OC)CC2)cc1
  ?	?
Cc1ccc(C(=O)Nc2cc(NC(=O)c3ccc(C)c(C)c3)cc(C(=O)O)c2)cc1C
  103.1%[activator]	-2.9%
O=C(CSc1nnc(-c2cccc(S(=O)(=O)N3CCCC3)c2)o1)c1ccccc1
  2.9%	68.7%[activator]
O=C(NC1CC1)C1CCN(C2=NS(=O)(=O)c3ccccc32)CC1
  -0.7%	1.0%
COc1cc(Cl)c(C)cc1NC(=O)Cn1cc(S(=O)(=O)N2CCN(c3ccccc3F)CC2)c2ccccc2c1=O
  -9.8%	0.8%

# This is a subset, so the mix of outcomes need not match the whole.
